FGF22 binding – binders of recombinant human FGF22 by thermal shift; SYPRO orange fluorescence; percent of sucrose octasulfate shift, DMSO zero; calls only at 9.99 µM; Q9HCT0; AID 651658; 340,000 compounds, 1.5% hits;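 active = melting point raised past a set limit in the mean and every replicate; three in four hits are not shown here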
Target sequence (Q9HCT0 whole entry, looked up): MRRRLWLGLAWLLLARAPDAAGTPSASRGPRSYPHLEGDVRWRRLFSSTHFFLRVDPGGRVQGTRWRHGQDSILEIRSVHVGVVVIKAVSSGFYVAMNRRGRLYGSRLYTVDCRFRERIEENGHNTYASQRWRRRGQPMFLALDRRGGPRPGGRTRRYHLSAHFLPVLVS
UCH37 inh – blocks the human deubiquitinase UCH37 | purified proteasome/UCH37, Ub-AMC cleavage fluorescence | inhibition, % (concentration not given with the values) | 330,000 compounds, 0.33% hits | AID 588478;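 active = mean of two replicates above 20%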;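 also: 0% = compound-free wells with enzyme and 100% = wells lacking proteasome; stock transfer was 100 nL into about 20 µL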
Target sequence (Q9Y5K5 whole entry, looked up): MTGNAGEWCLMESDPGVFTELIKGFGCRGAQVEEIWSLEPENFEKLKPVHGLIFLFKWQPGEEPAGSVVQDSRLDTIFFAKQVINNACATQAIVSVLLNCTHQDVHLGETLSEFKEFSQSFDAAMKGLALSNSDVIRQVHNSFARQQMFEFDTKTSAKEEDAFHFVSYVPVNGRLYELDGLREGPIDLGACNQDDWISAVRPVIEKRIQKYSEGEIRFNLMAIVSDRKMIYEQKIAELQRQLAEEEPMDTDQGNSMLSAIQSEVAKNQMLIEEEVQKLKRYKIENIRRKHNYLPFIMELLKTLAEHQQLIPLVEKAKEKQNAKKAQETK
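Material: human UCH37 enzyme supplied as purified proteasome complex / Amount: 0.15 nM proteasome as dispensed / Buffer or medium: pH 7.4 Tris-HCl (50 mM) with ovalbumin, ATP-MgCl2, DTT / Times: preincubation 30 min, reaction 25 min, room temperature / Technique: AMC fluorescence from Ub-AMC cleavage, excitation 355 nm, emission 460 nm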
Bfl-1 A1 inh – inhibitors of the anti-apoptotic protein A1, read as caspase activation | MEF A1-2A-BIM cells, Caspase-Glo 3/7 luminescence, 3 h; percent of clofoctol response, vehicle zero | caspase activation, % (no concentration beside the values) | 330,000 compounds, 0.066% hits | AID 2462;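 active = over half of replicate activation scores above 10%, or exactly half above 10 with the replicate mean above 10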;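 also: wells of about 30 µL received 50 nL stock; many hits fall short of the cut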
T cruzi repl – blocks replication of Trypanosoma cruzi. T. cruzi beta-gal in NIH3T3, luminescence, 90 h. inhibition, % (no concentration beside the values). 300,000 compounds, 1.4% hits. AID 1885;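 active = mean inhibition across valid replicates above about 55%, limit read from the data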;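 also: signal also drops with host cell toxicity which is not excluded here; 0% = plate median of DMSO wells and 100% = zero luminescence signal; higher percent means less beta-gal luminescence so fewer parasites; stock transfer was 50 nL into about 50 µL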
rRNA inh HTS – inhibits bacterial ribosomal RNA function over humanized ribosomes. GFP signal change (wild-type ribosome), % (concentration not given with the values). 350,000 compounds, 1.6% hits. E. coli WT GFP vs humanized-ribosome RFP mutants, fluorescence, 24 h; stronger effect = lower value; DMSO median 0, no signal -100. AID 720706;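 active = significant combined selectivity score with lowered wild-type GFP, culture density cut under 30%, mutant RFP and density less affected; inactive = any of these conditions unmet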; also: one replicate is shown; some compounds called inactive have numbers as strong as hits
Beta apoptosis – beta cell apoptosis inhibition; 300,000 compounds, 0.8% hits; INS-1E cytokine-induced death, ATP luminescence, 48 h; percent of positive-control rescue, neutral wells zero; protection from apoptosis, % (no concentration beside the values); AID 435005;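 active = all replicates at 75% or more, or half of them and the mean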;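 also: 0% = cytokine-treated negative control wells and 100% = positive control rescue; higher means more ATP so stronger rescue from cytokine killing; wells of about 40 µL received 100 nL stock; the first replicate is given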
E coli growth – blocks Escherichia coli growth | OD600, 23 h; stronger effect = lower value | OD600 absorbance (test concentration not listed) | 330,000 compounds, 0.21% hits | AID 1053175;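 active = OD600 absorbance below the run mean of sample wells minus 3.6 SD, in any replicate, cut at about 0.56 in these data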;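 also: stock transfer was 300 nL into about 60 µL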
AF4-AF9 inh – blocks AF4 peptide binding to human AF9; AlphaScreen, biotin-AF4 peptide binding to FLAG-AF9; inhibition, % at 10 µM; AID 651704; P42568; 350,000 compounds, 0.47% hits;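 active = every replicate reaching a set inhibition limit, whatever the replicate mean, cut at about 25% in these data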;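 also: 0% = plate neutral control median and 100% = total signal loss; the record names both 10 and 1 µM as test concentration; the first replicate is given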
Target sequence (P42568 whole entry, looked up): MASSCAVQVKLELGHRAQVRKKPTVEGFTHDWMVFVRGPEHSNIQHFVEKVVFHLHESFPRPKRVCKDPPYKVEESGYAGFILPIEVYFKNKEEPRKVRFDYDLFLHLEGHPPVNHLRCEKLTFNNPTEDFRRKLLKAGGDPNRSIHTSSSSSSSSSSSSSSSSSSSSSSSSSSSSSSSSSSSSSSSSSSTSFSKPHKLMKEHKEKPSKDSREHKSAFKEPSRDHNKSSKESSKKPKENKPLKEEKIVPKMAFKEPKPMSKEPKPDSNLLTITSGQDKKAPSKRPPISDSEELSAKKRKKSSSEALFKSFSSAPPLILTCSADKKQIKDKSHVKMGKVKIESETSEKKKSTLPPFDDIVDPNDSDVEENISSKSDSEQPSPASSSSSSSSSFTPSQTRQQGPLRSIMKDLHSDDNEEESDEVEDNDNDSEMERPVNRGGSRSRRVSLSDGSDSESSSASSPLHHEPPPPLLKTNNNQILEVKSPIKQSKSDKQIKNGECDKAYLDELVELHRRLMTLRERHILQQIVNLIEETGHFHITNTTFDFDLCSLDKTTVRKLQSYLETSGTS
rRNA inh HTS OD600 – recorded beside rRNA inh HTS, whose call it bears; OD600 change, %; measured here: OD600 growth;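 optical density of the mix in the first replicate; 0 = DMSO median and -100 = no signal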
rRNA inh HTS RFP – second read-out of rRNA inh HTS, no call of its own (marks repeat the call); RFP signal change, %; measured here: RFP humanized mutant strains;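 first replicate; 0 = DMSO median and -100 = no signal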
The depositor's hits bear a star; i = inactive; . = not tested or not shown.

canonical_smiles	FGF22 binding	UCH37 inh	Bfl-1 A1 inh	T cruzi repl	rRNA inh HTS	rRNA inh HTS OD600	rRNA inh HTS RFP	Beta apoptosis	E coli growth	AF4-AF9 inh
O=C1NCCCC1C(=O)NCCN1C(=O)CCC1=O (centres undefined)	i	-0.6	-0.9	2	9	3	-0.3	.	0.67	2.6
CCOc1ccccc1C(=O)N[C@H](C(=O)OCc1cc([N+](=O)[O-])cc2c1OCOC2)C(C)C	.	1.5	3.4	18	.	.	.	8	0.72	.
COc1ccc(CCNC(=O)c2cc(S(=O)(=O)N(C)C)ccc2N2CCCC2)cc1OC	i	2.6	0.4	-3	11	7	1.6	-2	0.73	1.6
Clc1ccc(-c2cc3ccccc3[nH]2)cc1	.	-43	0.5	-10	.	.	.	.	0.7	.
NS(=O)(=O)c1ccc(-c2ccc(/C=C3\C(=O)Nc4cc(Cl)ccc43)o2)cc1	i	-5.5	.	9	2	-2	2.4	.	0.68	0.9
CCNC(=O)C1(c2ccccc2)CCCC1	.	-0.6	-0.3	-3	.	.	.	.	0.68	.
CC(=O)c1sc(=S)n(Cc2ccccc2)c1C	i	11	0.7	3	-12	1	0.9	5	0.67	-19
Cc1ccc(N/C=C/C(=O)c2ccccc2)cc1Br	i	1.1	-7.1	16	0	2	-0.1	2	0.71	2.3
COc1ccc(OC)c(-c2csc(NC(=O)c3ccc(F)cc3)n2)c1	.	-5.9	-1.7	-3	-13	-29	-3.5	11	0.66	1.7
CC(C)C(=O)Nc1c(C(=O)N2CCN(c3ncccn3)CC2)oc2ccccc12	i	0.1	0.4	2	-1	0	-2.2	-4	0.71	-1.1
O=c1c(-c2ccc(Cl)cc2)coc2c(CN3CCOCC3)c(O)ccc12	.	-222	-0.9	-3	.	.	.	-1	0.7	.
CSCC[C@H](NS(=O)(=O)c1ccc(C(C)=O)cc1)c1nnc2ccccn12	i	2.8	-0.3	-1	4	10	1.3	-5	0.74	-0.9
NS(=O)(=O)c1ccc(NC(=O)CSc2ncnc3ccccc23)cc1	i	1.6	1.1	-6	3	9	1.1	-12	0.67	2.8
COc1ccc(-n2c(=O)c(NC(=O)c3ccccc3)c3n(c2=S)CCCCC3)cc1	.	5.7	0.1	14	5	8	1.9	-2	0.72	0.7
CCCC(CCC(=O)Nc1cccc([N+](=O)[O-])c1)C(=O)O (centres undefined)	i	3.0	0.9	-12	10	9	5.4	-5	0.74	-1.1
CN(C)c1ccc(C(=O)NCCCSc2ccccc2)cc1	i	3.5	0.6	-5	-32	-31	-1.8	-7	0.67	2.5
c1nc(N2CCCC2)c2[nH]cnc2n1	.	1.5	-0.3	-18	.	.	.	-9	0.67	.
O=C(Cn1cnc2c(nnn2Cc2ccc(F)cc2)c1=O)NCc1ccccc1	i	1.8	0.9	19	9	13	-5.2	-1	0.63	-17
COc1ccc(N2CCN(C(=O)CNC(=O)Cc3ccccc3)CC2)cc1	i	2.4	-0.2	-8	8	6	5.0	0	0.69	-0.3
Cc1onc(C(=O)N2CCOCC2)c1[N+](=O)[O-]	i	1.1	0.4	-28	.	.	.	-3	0.7	-0.5
COCCn1c(N)c(N(Cc2ccccc2)C(=O)COc2ccccc2F)c(=O)[nH]c1=O	i	1.9	0.0	.	17	15	-0.2	0	0.67	-1.6
CC1CCN(C(=O)COc2coc(CN3CCc4ccccc43)cc2=O)CC1	i	1.4	0.2	8	-1	-6	-2.5	.	0.6	-8.2
Cc1ccccc1NC(=S)N1CCCC(c2nc3ccccc3[nH]2)C1 (centres undefined)	i	4.0	0.2	72*	4	3	0.8	0	0.65	-0.3
COC(=O)c1ccc(C(=O)N(C)C2CCCN(Cc3ccccc3F)C2)cc1 (centres undefined)	i	2.2	0.6	-6	8	7	1.9	.	0.66	-2.4
O=C(O)/C=C/C(=O)NNc1ccc([N+](=O)[O-])cc1	.	13	-5.5	6	0	3	-0.2	-5	0.66	5.8
CC(=O)Nc1cccc(OC(=O)COc2ccc(Br)cc2)c1	i	0.7	-0.1	-16	22	14	-2.8	-1	0.71	0.8
COC(=O)C[C@H]1c2cc(C(F)(F)F)ccc2S(=O)(=O)N1C(C)(C)C	i	1.6	0.6	-18	3	4	-0.6	-6	.	-0.3
O=c1cc(C(F)(F)F)nc(SCc2cccnc2)[nH]1	.	0.1	0.4	-10	.	.	.	-3	0.7	.
O=C(COC(=O)c1cccc(S(=O)(=O)Nc2ccc(F)cc2)c1)NCCN1C(=O)CSC1=O	i	2.6	0.1	-3	6	9	-1.2	-5	0.68	-4.0
CCOC(=O)CN1C(=O)NC2NC(=O)NC21 (centres undefined)	.	0.1	0.3	-4	.	.	.	-4	0.76	.
O=C(CSc1nnc(-c2ccccc2)o1)N1CCN(c2ccccc2)CC1	.	0.8	0.0	-13	.	.	.	6	0.73	.
O=C(Nc1ccc(Cc2ccncc2)cc1)c1cc(F)c(F)cc1Cl	i	2.8	-0.3	15	16	4	2.4	6	0.7	2.3
CCOC(=O)N1C2C=C(C)[C@@H]2[C@@H]2CC(=O)N21 (some centres undefined)	i	3.5	0.4	-3	19	16	5.9	-2	0.65	-0.9
O=C(Nc1ccc(Br)cc1)N1CCCCC1	i	2.9	-3.1	-3	-9	11	-0.9	0	0.69	-0.2
Cc1ccc(S(=O)(=O)NCCSCc2ccccc2)cc1	.	1.9	-0.1	-6	.	.	.	0	0.69	.
CCN(CC)S(=O)(=O)c1ccc(O)c(NC(=O)c2cc(-c3cc(OC)c(OC)c(OC)c3)nc3ccccc23)c1	.	-33	0.4	4	.	.	.	21	0.75	.
CC1(c2ccc3ccccc3c2)NC(=O)N(CC(=O)NCC(C)(C)N2CCOCC2)C1=O (centres undefined)	i	2.5	-0.4	-13	7	0	1.6	0	0.7	0.6
CCOc1ccc(C(=O)C[n+]2ccc(C(=O)NCc3ccccc3)cc2)cc1	i	4.2	-0.6	-17	-1	2	0.2	-3	0.65	-2.1
COc1ccc(CCNC(=O)C2CCN(S(=O)(=O)c3cccc4nonc34)CC2)cc1OC	.	0.3	-0.9	-7	.	.	.	1	0.71	.
CC1(C(=O)NC(=S)N(Cc2ccccc2)c2ccccn2)CC1(Cl)Cl (centres undefined)	i	-1.3	-0.4	-10	-5	5	-1.0	-7	0.67	-1.9
COc1ccc(CN(C)C(=O)Cn2cnc3c(NCc4ccccc4)ncnc32)cc1OC	i	2.5	.	.	13	4	5.7	.	0.7	-1.6
CCc1nc(Nc2ccc3nccnc3c2)c2oc3ccccc3c2n1	.	-43	0.8	13	.	.	.	9	0.67	.
CC(OC(=O)C(C)N1C(=O)C2C3C=CC(C4CC34)C2C1=O)C(=O)c1ccccc1 (centres undefined)	i	1.4	0.8	16	-2	-4	8.5	2	0.65	3.2
Cc1ccc(NC2CCCN(C(=O)CSc3ccccn3)C2)cc1C (centres undefined)	i	2.8	-0.1	6	0	4	-3.0	-2	0.7	0.6
COc1ccc(S(=O)(=O)N(C)CC(=O)N2CCCC2)cc1OC	i	1.5	0.3	-5	13	13	-2.0	.	0.71	-5.0
O=[N+]([O-])c1ccc2c(c1)C=C1CCCCC1(N1CCCC1)O2 (centres undefined)	i	4.7	0.1	-3	.	.	.	3	0.71	17
Clc1ccc(CONc2ncnc3nonc23)c(Cl)c1	i	5.2	-1.9	28	-47	-80	-13	9	0.65	2.5
CCN=C1S/C(=C\c2cn(CC)c3ccccc23)C(=O)N1CC	i	4.9	-2.7	35	-9	-7	-4.2	1	0.71	16
Cc1ccc(Cn2ccc(NC(=O)C3C4CCC(C4)C3C(=O)O)n2)cc1 (centres undefined)	.	-4.5	-0.1	-6	.	.	.	3	0.73	.
CSc1nnc2c(n1)c(C)nn2-c1cccc(C)c1	.	3.3	-0.7	-5	.	.	.	-2	0.66	.
CCC(C)NC(=O)CCSCCC(=O)NC(C)CC (centres undefined)	.	1.9	1.9	-9	.	.	.	-5	0.68	.
O=C(Nc1ccccn1)NC(C(F)(F)F)C(F)(F)F	.	1.9	-0.2	-6	.	.	.	-7	0.66	.
CCOC(=O)CCCC(=O)Nc1ncnc2c1C(c1ccccc1)c1c(ccc3ccccc13)O2 (centres undefined)	i	1.0	-0.1	.	-7	-2	-1.6	2	0.7	-4.7
CC(=O)c1ccc2c(c1)OCCOCCOCCO2	i	4.8	0.9	-2	-6	-8	3.8	-6	0.64	-0.6
CC(=O)N1CCC(=NNc2nc3ccccc3s2)CC1	i	-1.3	-3.3	13	-3	-1	-1.9	-9	0.7	-2.4
COc1ccc(NC(=S)NCCSc2ccc(C)cc2)c(OC)c1	.	5.0	-0.3	4	-21	-42	-5.0	-5	0.67	.
O=C(NC1CCCCCC1)C1CCN(c2nc3ccccc3o2)CC1	.	3.1	1.0	0	.	.	.	-1	0.63	.
CCOC(=O)CC1C(=O)NCCN1S(=O)(=O)c1ccc(Cl)cc1Cl (centres undefined)	.	2.1	0.1	-7	.	.	.	-2	0.68	.
Cc1ccc(NC(=O)CSc2ncccn2)c([N+](=O)[O-])c1	.	3.8	0.2	1	-3	-9	-2.2	-9	0.7	0.4
CCOC(=O)c1nc(C)nc(Sc2n[nH]c(-c3cc(Cl)cc(Cl)c3)n2)c1C	i	2.6	-0.2	-26	8	3	1.2	0	0.61	-3.4

Reformatted with values under each structure: part of the list above.
Below each compound: FGF22 binding | UCH37 inh | Bfl-1 A1 inh | T cruzi repl | rRNA inh HTS | rRNA inh HTS OD600 | rRNA inh HTS RFP | Beta apoptosis | E coli growth | AF4-AF9 inh
- CCC(C)NC(=O)CCSCCC(=O)NC(C)CC (centres undefined)
 : . | 1.9 | 1.9 | -9 | . | . | . | -5 | 0.68 | .
- O=C(Nc1ccccn1)NC(C(F)(F)F)C(F)(F)F
 : . | 1.9 | -0.2 | -6 | . | . | . | -7 | 0.66 | .

The results go on.
canonical_smiles	FGF22 binding	UCH37 inh	Bfl-1 A1 inh	T cruzi repl	rRNA inh HTS	rRNA inh HTS OD600	rRNA inh HTS RFP	Beta apoptosis	E coli growth	AF4-AF9 inh
CCOC(=O)N1CCN=C1SCc1ccc(C(F)(F)F)cc1	i	.	-0.1	8	10	14	-1.2	-4	.	2.4
CC(C)(C)NC(=O)NC(=O)CN1CCN(c2ncc(C(F)(F)F)cc2Cl)CC1	.	-1.4	-0.4	19	.	.	.	3	0.7	.
Cc1ccc(C)c(NC(=O)CCN2CCCCC2)c1	i	6.4	0.1	-5	18	5	1.9	7	0.7	-0.5
Cc1ccc(C(=O)OCC(=O)N2CCC(c3ccccc3)=N2)c(C)c1	.	2.8	0.1	-2	13	4	1.5	1	0.68	-1.2
CC1CCN(c2nc3c(=O)[nH]c(N)nc3n2[C@@H]2O[C@H](CO)[C@@H](O)[C@H]2O)CC1	i	2.1	1.0	-8	11	8	-0.6	-13	0.63	-1.7
CC(=O)N(c1nnc(-c2cccc(C)c2)s1)C1CCCC1	i	1.6	-0.2	11	-22	-21	-2.3	-3	0.65	-3.0
COCCN(C(=O)COC(=O)c1cc2ccccc2cc1OC)c1c(N)n(Cc2ccccc2)c(=O)[nH]c1=O	.	-80	-0.8	2	-9	-11	0.2	1	0.7	0.7

Compound activity from PubChem BioAssay.

Only part of the results is shown; rates above refer to the full screens.
